High-throughput results deposited in PubChem BioAssay by several laboratories.
UCH37 inh: inhibitors of human UCH37 deubiquitinase, primary screen, biochemical, Ub-AMC cleavage, fluorescence | purified proteasome/UCH37 | 0.33% of 330,000 active | Ubiquitin carboxyl-terminal hydrolase isozyme L5 (Homo sapiens), Q9Y5K5 | inhibition, % (test concentration not listed) | AID 588478, 2011;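 active = mean of two replicates above 20%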;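 note: 0% = compound-free wells with enzyme and 100% = wells lacking proteasome; stock transfer was 100 nL into about 20 µL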
Target sequence (Q9Y5K5 whole entry, looked up): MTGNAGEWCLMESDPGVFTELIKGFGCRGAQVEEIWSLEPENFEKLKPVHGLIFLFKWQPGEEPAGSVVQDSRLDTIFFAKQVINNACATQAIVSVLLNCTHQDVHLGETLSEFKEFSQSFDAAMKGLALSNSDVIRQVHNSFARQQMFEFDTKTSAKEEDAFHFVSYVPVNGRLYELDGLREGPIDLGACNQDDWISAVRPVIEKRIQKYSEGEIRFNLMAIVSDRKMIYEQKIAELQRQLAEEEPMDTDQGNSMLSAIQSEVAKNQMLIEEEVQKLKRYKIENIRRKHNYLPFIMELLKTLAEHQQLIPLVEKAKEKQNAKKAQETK
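Assay system: Proteasome-bound UCH37. Buffer or medium: pH 7.4 Tris-HCl (50 mM) with ovalbumin, ATP-MgCl2, DTT. Incubation: 30 min preincubation with enzyme, 25 min cleavage at room temperature. Measured by: fluorescence, ex 355 nm, em 460 nm. Read-out basis: percent inhibition. Control set: wells without proteasome as full block, compound-free enzyme plus substrate as uninhibited.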
E coli growth: E. coli growth inhibition, primary screen, OD600 | Escherichia coli growth, 23 h; stronger effect = lower value | OD600 absorbance (concentration not given with the values) | 0.21% of 330,000 active | AID 1053175, 2014;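 active = OD600 absorbance below the run mean of sample wells minus 3.6 SD, in any replicate, cut at about 0.56 in these data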;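 note: stock transfer was 300 nL into about 60 µL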
HNF4A DNA FP: change in binding of human HNF4A to DNA, primary screen, biochemical, fluorescence polarization, FITC-DNA. Hepatocyte nuclear factor 4-alpha (Homo sapiens), P41235. 1 h. activity change, % at 10 µM. 0.3% of 360,000 active; in the data active = activity change above about 30%, passing the limit was not always enough;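 note: controls were the assay level and a saturating level of protein; the project sought stronger binding though the title names inhibitors; some compounds called inactive have numbers as strong as hits; positive values seem to mean higher polarization but the record does not say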
Beta2AR agonist: beta2AR agonists driving receptor internalization, primary screen, cell-based, FAP fluorogen, flow cytometry | Am2.2-beta2AR cells; reference of the scale not given here | response, % (no concentration beside the values) | 0.43% of 340,000 active;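 active = response above a set limit, near 3 SD of response in nonfluorescent compounds, cut at about 42% in these data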;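 note: stock transfer was 100 nL into about 11 µL; a reference agonist was the positive control; negative values mostly stem from fluorescent compounds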
Target sequence (P07550 whole entry, looked up): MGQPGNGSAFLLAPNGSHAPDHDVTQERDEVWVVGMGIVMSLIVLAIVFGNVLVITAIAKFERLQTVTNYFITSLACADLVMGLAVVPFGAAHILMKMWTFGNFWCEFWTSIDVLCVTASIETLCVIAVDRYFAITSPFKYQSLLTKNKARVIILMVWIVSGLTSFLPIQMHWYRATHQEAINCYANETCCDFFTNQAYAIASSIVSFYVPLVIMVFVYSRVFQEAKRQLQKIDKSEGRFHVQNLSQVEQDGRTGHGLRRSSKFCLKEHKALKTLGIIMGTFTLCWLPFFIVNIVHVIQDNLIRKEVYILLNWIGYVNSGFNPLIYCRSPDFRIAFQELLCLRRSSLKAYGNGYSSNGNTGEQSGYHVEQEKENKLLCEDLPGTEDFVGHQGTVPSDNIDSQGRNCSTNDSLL
A1 inh: caspase 3/7 activation in MEF A1-2A-BIM cells, primary screen, A1 inhibitor project, cell-based, luminescence, HTS; Caspase-Glo 3/7 luminescence, 3 h; percent of clofoctol response, vehicle zero; caspase activation, % (test concentration not listed); 0.066% of 330,000 active;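 active = over half of replicate activation scores above 10%, or exactly half above 10 with the replicate mean above 10; inconclusive = replicate mean below 10 yet half the replicates above 10; inactive = over half of replicates below 10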;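 note: wells of about 30 µL received 50 nL stock; many hits fall short of the cut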
Vif A3G: inhibitors of Vif binding to APOBEC3G peptide, primary screen, biochemical, TR-FRET, GST-Vif 1-94, biotin-A3G peptide, dose response retest (AID 1117319); one-dose inhibition, %; IC50 in µM for titrated hits; 0.57% of 260,000 active; Virion infectivity factor (Human immunodeficiency virus type 1 group M subtype B (isolate …; TR-FRET GST-Vif / biotin-A3G peptide binding; higher % means a stronger effect; test concentration not given here; strong numbers were not always called active;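 active = above the screen mean plus three standard deviations and confirmed in dose response; inconclusive = results disagree or hit not tested in dose response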;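 note: Vif residues 1-94 fused to GST binding biotinylated APOBEC3G peptide 110-148; 0% = full assay without inhibitor and 100% = GST in place of GST-Vif; retest series ran down from 100 µM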
LANA-H2A inh: blockers of LANA interaction with H2A/H2B – biochemical, FP readout, HTS, primary screen | cell-free LANA-H2A/H2B peptide, fluorescence polarization | 0.6% of 320,000 active | inhibition, % (test concentration not listed) | AID 2629, 2010 | Protein LANA1 (Human herpesvirus 8 type P (isolate GK18)), Q9QR71; in the data active = inhibition mostly above about 10%, no sharp cut-off; inactive = mostly below about 6.7%;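 note: stock transfer was 7.5 nL into about 10 µL; 0% = median of vehicle wells and 100% = median of positive control wells; one replicate is shown; the record names a cut of 25% in any replicate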
* = called active by the depositor; ? = inconclusive; . = no result given; & = joins results of further samples.

no.	SMILES	Beta2AR agonist	Vif A3G	LANA-H2A inh	E coli growth	UCH37 inh	A1 inh	HNF4A DNA FP
1	COc1ccc(CC(=O)NC2CCN(CC(=O)N3CCCc4ccccc43)CC2)cc1OC	3.5	-6.4%&4.5%	-2.1	0.668	2.6	-0.2	-2.6
2	Cc1ccnc(NC(=O)CNC(=O)COc2ccccc2)c1	-2.2	-1.5%	-0.7	0.647	1.9	-0.3	0.9
3	CCOC(=O)CSc1nc2ccccc2c(=O)n1CC1CCCC1	-7.8	3.8%	-5.7	0.724	1.3	0.3	4.5
4	Cc1ccc(C(=O)C(C)OC(=O)CNC(=O)c2ccc(Br)o2)cc1 (stereo not drawn)	-1.2	-0.9%	1.5	0.644	-2.5	-0.4	0.2
5	CCOC(=O)C1(CCc2ccccc2)CCN(C(=O)C2=C(C)OCCO2)CC1	8.6	6.4%	-0.1	0.683	1.1	1.3	-2.9
6	CCC(=O)N/N=C/c1ccc(-c2ccc([N+](=O)[O-])cc2)o1	-13.5	-9.2%	3.9	.	.	0.4	-10.0
7	CCCCn1c(N)c(N(CCC(C)C)C(=O)c2[nH]c(C)c(C(=O)OCC)c2C)c(=O)[nH]c1=O	1.2	3.7%	0.9	0.699	2.2	0.5	0.3
8	Cc1ccc(CSCC(=O)NN=C2CCN(C)CC2)cc1	-2.1	.	-0.1	0.688	0.9	1.0	-1.2
9	CN(C(=O)COC(=O)CNC(=O)c1ccc(Cl)cc1Cl)c1ccccc1	8.5	?	-4.6	0.663	0.0	0.1	0.7
10	O=C(Nc1ccccc1)c1ccc(-c2ccc(F)cc2)s1	2.3	5.7%	-1.0	0.645	-29.3	-4.9	3.5
11	O=C(CCNS(=O)(=O)c1ccccc1C(F)(F)F)NCC(c1ccco1)N1CCCCC1 (stereo not drawn)	3.7	-7.0%	-1.3	0.643	4.9	-0.7	-0.1
12	O=C1CC(c2ccccc2Cl)CC(O)=C1C=Nc1ccccc1 (stereo not drawn)	-16.5	-47.2%	9.1	0.647	-14.2	0.4	0.3
13	NC(=O)C(c1ccccc1)c1ccc(C(=O)c2ccccc2)cc1 (stereo not drawn)	-9.6	-3.5%	-1.5	0.69	1.6	-0.3	0.9
14	CCc1ccccc1NC(=O)CN(C)C(=O)c1cccc(S(=O)(=O)N2CCCCCC2)c1	-6.8	2.2%	2.2	0.687	0.6	-0.1	2.3
15	Cc1cc(C)c2cc(C(=O)N3CCC(N4CCCCC4)CC3)[nH]c2c1	5.1	.	0.6	0.69	0.3	1.0	-2.0
16	O=Cc1cccn1Cc1ccc(Cl)cc1Cl	7.6	1.0%	-3.7	0.735	1.1	-0.1	4.0
17	c1ccc(-n2nnnc2SCc2cccc(CSc3nnnn3-c3ccccc3)n2)cc1	-4.5	-2.1%	-0.2	0.793	-5.9	0.8	24.5
18	CC(C)(Oc1ccc(Cl)cc1)C(=O)NCc1ccc(S(N)(=O)=O)cc1	0.5	-1.8%	-4.2	0.729	4.3	-0.4	-5.1
19	O=C(CN1C(=O)/C(=C\c2cccs2)SC1=S)Nc1cccc(C(=O)O)c1	-8.5	81.6%	2.6	0.743	6.1	-0.5	0.0
20	COc1ccc(NC(=O)C2CCCN(S(=O)(=O)c3ccc4c(c3)oc(=O)n4C)C2)c(OC)c1 (stereo not drawn)	8.9	4.9%	1.8	0.709	2.9	0.7	2.6
21	COc1cc(OC)c(OC)cc1CN1CCCC(C(=O)c2ccccc2SC)C1 (stereo not drawn)	-0.2	5.4%	-4.0	0.686	1.7	0.5	1.9
22	CC1(C)CCCN(C(=O)c2ccc3c(c2NCCO)C(=O)c2ccccc2C3=O)C1	-7.1	-4.7%	-0.4	.	.	0.2	7.5
23	O=C(NCCc1ccccc1)c1cc(-c2ccncc2)nc2ccc(S(=O)(=O)N3CCOCC3)cc12	-1.2	.	-1.2	0.739	6.7	-0.3	-0.1
24	CCCCNC(=O)c1ccc(CS(=O)(=O)c2cccc(C(F)(F)F)c2)o1	-10.6	0.3%	-4.7	0.718	6.2	-0.1	-0.8
25	COc1ccc(CNC(=O)CN2C(=O)CSc3ccc(S(=O)(=O)N4CCOCC4)cc32)c(OC)c1	-2.1	.	3.1	0.674	3.2	0.4	4.8
26	COC(=O)c1cnn(-c2cc(Oc3cccc(C)c3)ncn2)c1N	-3.0	3.2%	1.1	0.672	0.6	-0.2	-0.4
27	CN1CCN(C(=O)C2CCN(c3ncnc4c3nc3n4CCCCC3)CC2)CC1	-7.1	.	-2.7	0.651	5.0	0.9	-0.1
28	O=P(NCc1ccccc1)(OCc1ccccc1)OCc1ccccc1	-5.2	6.2%	.	.	.	.	-2.6
29	CC1CC(C)CN(CC(O)COCc2ccccc2)C1 (stereo not drawn)	-6.8	.	-8.5	0.704	2.9	-0.9	-0.5
30	COc1ccc(-c2nc3nc(C)cc(=O)n3[nH]2)cc1	-3.2	-1.1%	0.2	0.698	3.7	-0.9	0.0
31	CC/C(O)=C1\C(=O)CCCC1=NCc1nc2ccccc2[nH]1	-8.2	2.1%	2.7	0.695	5.9	0.6	-3.6
32	C=CCn1c(SCC(=O)Nc2sccc2C(N)=O)nc2ccc(Cl)cc2c1=O	-2.0	-5.8%&-6.8%	-0.6	0.733	0.6	-0.2	2.5
33	CCOc1ccccc1/C=N/Nc1ccnc(=O)[nH]1	-2.5	6.9%	-0.2	.	.	-0.3	0.5
34	CC(=O)c1ccc(NC(=O)C2C3C=CC(O3)C2C(=O)O)cc1 (stereo not drawn)	36.4	4.6%	1.8	0.625	0.7	-0.2	6.5
35	O=C(CCCOc1cccc(Br)c1)NC1CCC(O)CC1 (stereo not drawn)	0.1	.	2.5	0.712	1.7	-0.1	0.4
36	Cc1cc(OCC(=O)O)c2ccccc2n1	7.4	2.1%	4.5	0.681	1.0	0.1	-0.9
37	CN(CC(=O)Nc1ccc(F)cc1)C(=O)CN1C(=O)c2ccccc2C1=O	-1.9	.	-1.0	0.707	2.0	0.1	-0.8
38	CC1(C)N=C(SCC(=O)Nc2ccccc2)C(c2ccc(Cl)cc2)=N1	-11.6	-4.2%	-6.2	0.697	0.8	-0.3	-0.8
39	O=C(Nc1ccccc1NC(=O)c1ccco1)c1ccco1	-19.1	1.8%	-0.1	0.723	2.5	0.4	-1.2
40	Cc1csc(NC(=O)c2ccc3ccccc3n2)n1	-2.2	1.2%	-0.7	0.696	3.7	-7.3	2.3
41	C/C(O)=C(/N=O)C(=O)Nc1ccccc1	-7.4	-3.0%	2.4	0.66	1.3	0.8	-2.7
42	N#Cc1nc(-c2ccccc2Cl)oc1N1CCOCC1	-3.9	-4.5%	8.5	0.686	-26.0	1.1	-3.3
43	CC(=N)c1c(O)cc(C)oc1=O	4.8	-9.4%	.	0.661	1.8	.	3.4
44	COc1ccc(C2CC2/C(C)=N/OC(=O)C2CC2)cc1 (stereo not drawn)	2.4	.	-4.5	.	.	0.8	-0.6
45	COc1ccc(C(=O)c2oc3ccc(OC)cc3c2N)cc1	15.9	1.6%	0.7	0.703	-23.1	-2.9	-0.6
46	O=C(CC1C(=O)NCCN1Cc1c(F)cccc1Cl)NCCCOc1cccnc1 (stereo not drawn)	-4.7	.	-2.9	0.633	2.0	0.5	1.7
47	CCCCc1noc(-c2c(-c3ccccc3Cl)noc2C)n1	-7.6	.	-2.4	0.678	-1.0	0.0	5.2
48	O=C(NCc1ccccc1Br)c1ccncc1	-0.8	-1.1%	2.5	0.693	3.0	-0.5	2.5
49	COc1cc(C(=O)NCc2nnc(SCC(=O)NC3CCCCC3)o2)cc(OC)c1OC	-0.1	.	-1.8	0.658	4.5	-0.4	0.7
50	Cc1cn(C2CC(OC(=O)C(C)C)C(CO)O2)c(=O)[nH]c1=O (stereo not drawn)	-4.0	10.9%	-0.6	0.673	3.7	-1.4	-0.2

Next part.
no.	SMILES	Beta2AR agonist	Vif A3G	LANA-H2A inh	E coli growth	UCH37 inh	A1 inh	HNF4A DNA FP
51	N#Cc1nc(COc2ccccc2)oc1N1CCN(c2cccc(Cl)c2)CC1	3.7	-0.4%	4.3	0.726	1.1	1.0	-2.1
52	Cc1ccc(N/C=C(\C#N)c2ccc(OCCCF)cc2)cc1	9.7	0.7%	-2.1	0.683	6.3	-0.7	-1.5
53	COc1ccc(CC(=O)OCc2cc3ccccc3[nH]c2=O)cc1	-6.6	8.4%	-2.9	0.726	2.1	1.2	-3.8
54	O=C(c1ccc(F)cc1)N1CCOCC1	2.8	.	1.3	0.661	2.4	0.7	0.9
55	Cc1nc2oc3c(NCc4ccccc4)ncnc3c2c2c1COC(C)(C)C2	-5.5	8.9%	0.0	0.722	-40.8	0.1	5.9
56	C#CCOCCOCCOCCNc1nc(N2CCN(C(=O)CCCCCCCCCCNC(=O)Cn3cc(C[C@@H](C)O)nn3)CC2)nc(N2CCN(C(=O)CCCCCCCCCCNC(=O)[C@H](CCCCN)n3cc(CCCC(=O)O)nn3)CC2)n1	15.0	.	1.6	.	4.4	-0.2	3.5
57	O=[N+]([O-])c1ccc(-c2ccc(S(=O)(=O)N3CCOCC3)cc2)cc1	-5.0	-8.8%	8.1	0.699	2.1	-0.1	-0.5
58	O=C1N/C(=C\c2ccc(O)cc2)C(O)=C1C=NCc1ccccc1	5.3	11.8%	6.2	0.641	8.3	?	-2.4
59	COc1ccc(COCC(O)CN(Cc2ccco2)Cc2ccccc2O)cc1 (stereo not drawn)	0.8	.	0.4	0.658	3.8	0.7	1.7
60	CC1(C)Cc2nc3oc4c(N(CCO)Cc5ccccc5)ncnc4c3cc2CO1	-3.4	-1.3%	7.1	0.693	-35.3	0.7	6.3
61	COc1ccc(OC)c(NC(=S)NCCSc2ccc(C)cc2)c1	1.1	-9.3%	-4.9	0.712	0.9	0.6	2.8
62	O=[N+]([O-])c1cccc(C=NN=Cc2ccccc2O)c1	-6.2	-4.4%	.	.	.	.	-3.4
63	Cc1ccc(NC(=O)C2CCN(C(=O)NCc3ccccc3)CC2)cc1C	0.5	.	0.2	0.636	0.6	-0.7	2.7
64	O=C(CN1CCN(S(=O)(=O)c2ccc(Cl)cc2)CC1)NC1CC1	2.8	-3.8%	-5.4	0.701	4.0	0.4	-1.4
65	O=C(/C=C/c1ccco1)N1CCN(c2ncccn2)CC1	-6.2	?	0.5	0.695	2.4	-0.6	-0.2
